Assay outcomes deposited in PubChem BioAssay by Fisher Drug Discovery Resource Center.
NPYLR7 ag: activates Aedes aegypti NPYLR7 receptor | HEK293T NPYLR7/Galpha15, GCaMP6s calcium fluorescence | activation, % at 10 µM | hit rate 0.15% among 270,000; in the data active = activation above about 40%;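 note: 0% = vehicle and 100% = reference agonist at the receptor; some compounds past the cut are filed as inactive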
NPYLR7 ag max-min: further read-out of NPYLR7 ag, marked with its call; activation, %; measured here: Max-Min RFU normalised activation; some inactives read as strong as hits;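 span of the calcium signal over five minutes; 0% = vehicle and 100% = native peptide agonist; compound fluorescence can raise it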
* hit, by the source's call. Some of the compounds tested, so the mix of outcomes need not match the whole.

canonical_smiles | NPYLR7 ag | NPYLR7 ag max-min
O=C(NCCc1ccccn1)c1csc(CSc2nnc(-c3ccco3)n2-c2ccccc2)n1 | 8 | 6
O=C(/C=C/c1ccccc1)NC1CC2CCC(C1)N2Cc1ccc2c(c1)OCO2 (stereo not given) | 2 | 12
CC(C)c1[nH]ncc1Br | 17 | 11
CCN(CC)C(=O)Oc1ccc2c(ccn2Cc2ccccc2Br)c1-c1ccc(OC)cc1 | 26 | 11
O=C(c1ccsc1)N1CCN(S(=O)(=O)c2cccc(Cl)c2)CC1 | 1 | -2
Cc1ccc(CC(=O)NNC(=O)c2sc(N3CCOCC3)nc2C)cc1 | 0 | 3
CN(C)C(CN)c1ccccc1 (stereo not given) | -2 | -6
CCN(CC)C(=O)Cn1cc(SCC(=O)NC2CCCC2)c2ccccc21 | -5 | -13
COc1cccc(CC(C2CCN(C(=O)c3cc(C(C)C)on3)CC2)N(C)C(=O)c2ccn(C)n2)c1 (stereo not given) | 11 | -1
CC(C)Nc1nc(-c2cccs2)nc2cc(Cl)ccc12 | 5 | 9
CCNC(=O)c1cc(N2CCCN(C(=O)c3ccsc3)CC2)ccn1 | 3 | 4
COc1ccc(S(=O)(=O)NCCn2nc(-c3ccccc3)ccc2=O)cc1C | 1 | 0
N#CCN(Cc1ccc(F)cc1)CC1CC1 | 15 | 7
Nc1nnnn1/N=C\c1ccc(N2CCOCC2)cc1 | 0 | -1
CC1(C)OCC(CNC(=O)c2ccc(-c3cc(-c4ccc(Cl)cc4)[nH]n3)cc2)O1 (stereo not given) | 1 | 14
COc1cc2sc(=NC(=O)c3cc(C)on3)n(C)c2cc1OC | 5 | -2
Cc1nnc2ccc(-c3ccc(NS(=O)(=O)c4ccc5c(c4)CCCC5)cc3)nn12 | -9 | -4
CC1NCCN(c2ccccc2[N+](=O)[O-])C1=O (stereo not given) | -3 | 1
CSc1nn(-c2ccc(C(=O)O)cc2)c(=S)s1 | 3 | 1
CCN(Cc1ccc(N(C)C)cc1)C(=O)Cc1c(C)[nH]c2ccccc12 | 7 | 6

Reprinted at random: 2 records from the list
canonical_smiles | NPYLR7 ag | NPYLR7 ag max-min
CCN(Cc1ccc(N(C)C)cc1)C(=O)Cc1c(C)[nH]c2ccccc12 | 7 | 6
CCN(CC)C(=O)Cn1cc(SCC(=O)NC2CCCC2)c2ccccc21 | -5 | -13

Next structures
canonical_smiles | NPYLR7 ag | NPYLR7 ag max-min
CC1(C)Cc2ccccc2C(C(C#N)c2ccccc2)=N1 (stereo not given) | -18 | -21
COCCc1noc(CSc2ccc(C)cc2)n1 | -1 | -3
COc1ccccc1C1CN(CC(=O)N(C)CC2CCN(CC(C)C)C2)Cc2ccccc2O1 (stereo not given) | 5 | -1
Cc1ccc(-n2nc3c(c2NC(=O)c2ccccc2C)CSC3)c(C)c1 | 5 | 10
O=C1NC(c2cc(-c3ccccc3)cs2)Nc2ccccc21 (stereo not given) | -7 | -9
O=C(CCC(=O)N1CCN(c2ccccn2)CC1)NCCCCc1ccccc1 | 10 | 6
Clc1cc(CNCC2CN(Cc3ccccc3)CCO2)cc2c1OCCO2 (stereo not given) | 3 | 2
Cc1ccc(N2C(=O)c3ccc(-c4nc5ccccc5c(=O)o4)cc3C2=O)c(C)c1 | 1 | 7
Cc1cnccc1N1CCCN(C(=O)Cc2nonc2C)CC1 | 10 | 6
Cc1cc(C)c2c(NC(=O)c3ccccc3Cl)c(C(=O)O)sc2n1 | 1 | -1
Cc1ccc(-n2c(C)nc3ccc(NC(=O)c4cccnc4)cc3c2=O)cc1 | -8 | -9
CC(C)c1cc(C(=O)NCC2CCCS2)nn1C (stereo not given) | 11 | 5
Cc1cccn2c(=O)c3cc(C(=O)NCCN(C)C)n(C)c3nc12 | 7 | 12
COc1cc(C=CC(=O)N2CCC(O)(Cc3ccccc3)CC2)ccc1OCc1ccccc1 | 11 | 4
CC(=O)N(CCN(C)C)Cc1c(-c2ccccc2)noc1N1CCCC1 | 9 | 15
CCCCCCCCCCCC(=O)N(CCOC)Cc1nc(C(=O)OCC)cs1 | 23 | 25
CCCCN(C1=NC2CS(=O)(=O)CC2S1)c1ccc(Cl)cc1 (stereo not given) | 3 | 1
CC(C)(C)C1CCC(NC(=O)C(=O)c2ccc(C3CCCCC3)cc2)CC1 (stereo not given) | -18 | -27
CC(C)CCn1c(=O)n(Cc2ccccn2)c2cc(C(=O)O)ccc21 | -5 | -6
Cc1nc(Cn2nc(C3CCNCC3)n(Cc3ccccc3)c2=O)cs1 | 3 | 1

More entries.
canonical_smiles | NPYLR7 ag | NPYLR7 ag max-min
CCc1nc2ccc(C(=O)NCc3cccs3)cn2c1N(C)Cc1nccs1 | -8 | -10
COc1ccc2oc(-c3ccccc3[N+](=O)[O-])cc(=O)c2c1 | -11 | -14
Cc1cccc(-n2c(CNC(=O)c3ccco3)nnc2SCC(=O)Nc2nccs2)c1 | 9 | 7
Cc1noc(C)c1CCNc1nccc(CCC(F)(F)F)n1 | -1 | 0
CCOC(=O)CC1C(=O)NCCN1C(=O)Nc1cccc(C(=O)OCC)c1 (stereo not given) | -6 | -15
CC(C)CNC(=O)c1coc(CN(CCc2c[nH]c3ccccc23)Cc2cccc(F)c2)n1 | 11 | 8
CC1SC(c2ccccc2Cl)N(CCCN(C)C(=O)NC(C)(C)C)C1=O (stereo not given) | 20 | 24
CC1=NN(CC(N)=O)c2nc3c(c(=O)n(CCC(C)C)c(=O)n3C)n2C1 | 2 | 6
Cc1c(C(=O)N(C)CCC#N)c(C(F)(F)F)nn1C1CCCN(C(C)C)C1 (stereo not given) | 15 | 6
Cc1ccc(-n2c(-c3ccc(F)cc3)cc(C(=O)N3CCN(C(=O)COc4ccccc4)CC3)c2C)cc1 | -6 | 2
O=S(=O)(NC1CCCCC1)c1ccc(Cl)cc1 | 3 | 1
COc1ccc(CCC(=O)OCC(=O)c2ccccc2)cc1 | 3 | 7
Cc1[nH]n(-c2ccc(Cl)cc2)c(=O)c1C1=C(N2CCN(C)CC2)C(=O)N(c2ccccc2F)C1=O | 2 | 3
Cn1c(SCCC#N)nc2scc(-c3cccs3)c2c1=O | 8 | 2
CCc1c(C)nn(CCn2cnc(-c3ccccc3)c2-c2nc[nH]c2C)c1C | 12 | 1
O=C(O)C1C2C=CC(O2)C1C(=O)NCc1ccccc1Cl (stereo not given) | -1 | -2
CC(NC(=O)c1ccc(OCc2cscn2)cc1)c1ccc(F)cc1 (stereo not given) | 9 | 9
Cc1ccc2[nH]cc(-c3cc(C(=O)N4CCCC4)ccn3)c2c1 | -3 | -1
Cc1cc(C)cc(OCc2nc(CNC3CC3)cs2)c1 | 17 | 22
c1ccc(Cn2c(-c3cccnc3)cc3cnc(Nc4ccccn4)cc32)cc1 | -2 | 4

Entries of single compounds from above. Order of values: NPYLR7 ag, NPYLR7 ag max-min
`O=S(=O)(NC1CCCCC1)c1ccc(Cl)cc1` is entered as 3, 1
`Cc1noc(C)c1CCNc1nccc(CCC(F)(F)F)n1` is entered as -1, 0
`CC(C)CNC(=O)c1coc(CN(CCc2c[nH]c3ccccc23)Cc2cccc(F)c2)n1` is entered as 11, 8
`CCOC(=O)CC1C(=O)NCCN1C(=O)Nc1cccc(C(=O)OCC)c1` (stereo not given) is entered as -6, -15

(listing goes on)
canonical_smiles | NPYLR7 ag | NPYLR7 ag max-min
CCCS(=O)(=O)c1c(Nc2ccccc2C)sc(C(=O)c2ccccc2)c1N | -11 | -17
C=CCNC(=O)N[C@H]1CCN(C(=O)c2cccn2C)[C@@H]1C(=O)N(C)CC(N)=O | -8 | -13
CN(C)CCOc1nc(-c2ccccc2)nc2c1oc1ccccc12 | 10 | 5
COCc1cnc2c(c1SCC(=O)NC1CCCC1)c(=O)n(C)c(=O)n2C | 1 | 5
Cc1cccc(C(=O)NC(C(=O)N2CCOCC2)C2CCN(C(=O)C3CC3)CC2)c1 (stereo not given) | -5 | 6
CCCCC(=O)Nc1ccnn1CC1=CCCN(C)C1 | 1 | 0
Cc1noc(C)c1S(=O)(=O)NC(=O)C1(C)CCN1C(=O)C(C)(C)c1ccccc1 (stereo not given) | -2 | -6
COc1cc2c(cc1OC)C(c1ccccc1Cl)N(C(=O)c1cc3c(s1)-c1ccccc1OC3)CC2 (stereo not given) | 24 | 15
CC1=C(C(=O)NC2CCCc3nc(-c4cccnc4)ncc32)OCCO1 (stereo not given) | 2 | -6
O=C(CSc1nnc(-c2ccc(Cl)cc2)n1-c1ccccc1)N/N=C\c1ccc([N+](=O)[O-])cc1 | -3 | -4
OCCOc1ccc(-c2nccn2Cc2ccoc2)cc1 | 0 | -3
Cc1n[nH]c(C)c1Cc1n[nH]c(=O)n1CCc1ccccc1F | 2 | -2
CC(C)N=c1ccccn1C(=O)Cc1csc(Cc2cccc(Cl)c2)n1 | 9 | 1
COc1ccc(-c2cnnc(NCCc3cccnc3)n2)c(OC)c1 | 0 | -1
O=C(NCC(=O)N1CCCCC1)c1ccnc(Oc2ccccc2)c1 | 6 | 8
COc1cccc([C@@H]2CCN(Cc3ccc(CO)o3)C[C@H]2O)c1 | 2 | 0
COc1ccccc1C(=O)N(Cc1csc(COc2ccc(Cl)cc2)n1)CC(C)C | -5 | 6
Cn1c(C(=O)NC2CCCC2)cc2sccc21 | 3 | 0
Cc1ccc2oc(C(=O)N3CCCCCC3c3ccncc3)cc2c1 (stereo not given) | -5 | -2
COc1cc(O)cc(OC)c1 | -1 | 0

Next structures follow.
canonical_smiles | NPYLR7 ag | NPYLR7 ag max-min
NC(=S)NN=Cc1ccc(C2C=CCC2)s1 (stereo not given) | -10 | -18
COC(=O)CN1CC2(CCN(CC(=O)Nc3ccc(C)cc3Br)CC2)OC1=O | 2 | 29
C=C(C)C(O)(C(=C)C)c1ccc(CN(CCOC)Cc2ccccc2OC)o1 | -9 | -3
Cc1cc2oc(=O)cc(C)c2c(=O)o1 | 0 | 3
OC(COCc1ccccc1)CN(Cc1ccco1)Cc1ccco1 (stereo not given) | -1 | 8
Cc1cnc(C)c(N2CCN(Cc3cc(C#CCO)cs3)CC2)n1 | -4 | -5
CCOc1ccc(-n2ccnc(SCC(=O)c3ccccc3)c2=O)cc1 | 0 | 7
O=C(c1cc2n(n1)CCN(CC1CC1)C2=O)N1CCC(Cc2ccccc2)CC1 | 1 | 14
Cc1cc(N2CCC(NC(=O)C(C)c3cccs3)CC2)nc(C)n1 (stereo not given) | 4 | 4
COc1ccc(/C=C2\C=C(c3ccccc3)N(c3ccc(NC(C)=O)cc3)C2=O)cc1 | 9 | 14
CN(Cc1cccc(-c2nn[nH]n2)c1)Cc1cc2n(n1)CCNC2 | 13 | 8
COCCC(=O)N1CCC(Oc2ccc(C(=O)NCc3ccco3)cc2)CC1 | 2 | -1
Cc1ccc(NC(=O)CC(=O)NCCCc2ccncc2)cc1 | 5 | 5
Cc1ccc(C2c3ccsc3CCN2C(=O)CN(C(=O)c2ccc(Cl)c([N+](=O)[O-])c2)C2CC2)cc1 (stereo not given) | -8 | -3
CN(Cc1cc(-c2cccs2)n[nH]1)C(=O)c1onc2ccccc12 | -2 | -9
COC(=O)C1=C(C)N(C)C(C)=C(C(=O)OC)C1c1cccc(Oc2ccccc2)c1 | -7 | -12
CCN(CCc1ccncc1)S(=O)(=O)c1cc(N2C(=O)CCS2(=O)=O)ccc1C | 3 | 1
N#Cc1cc2c(nc1SC1CCCCC1O)CCCC2 (stereo not given) | 9 | 3
CCCCCCCCCCCC(=O)Nc1ccc(N2CCC(C)CC2)c(C(=O)NCCOC)c1 | 16 | 13
CCC(C)C(=O)NS(=O)(=O)c1cc(Cl)c(N)c(Cl)c1 (stereo not given) | 0 | 6

(more compounds)
canonical_smiles | NPYLR7 ag | NPYLR7 ag max-min
O=C(c1ccc(N2CCNCC2)nc1)N1CCC(CCc2ccccc2)CC1 | 7 | 5
CC(Sc1nnc(N)s1)C(=O)c1c(N)n(C)c(=O)n(C)c1=O (stereo not given) | 1 | -2
Cc1cc(C)c2nc(SCC(=O)N(C)C3CCS(=O)(=O)C3)cc(C)c2c1 (stereo not given) | -4 | -5
O=C1CCCN1CCCC(=O)N1CCCC(Nc2cccc(F)c2)C1 (stereo not given) | 5 | 1
COc1cc(NC(=O)Cc2cnc3c(C)cccn23)ccc1NC(=O)CC(C)C | 3 | 6
CCCOC1CCCN(c2nncc(-c3cccc(F)c3)n2)C1 (stereo not given) | -2 | -8
COCCCN(CC(=O)N(Cc1ccccc1)Cc1ccco1)C(=O)Nc1cccc(Br)c1 | 5 | 3
CCOC(=O)c1nnc(NC(=O)c2cc(Cl)cc(Cl)c2)s1 | 4 | 3
O=C1OC(c2ccc3ccccc3c2)=NC1=Cc1cc(Br)cs1 | 2 | 0
CN(C)C(=O)c1ccc(-c2ccc3c(c2)OCO3)s1 | 26 | 22
C=CCOC(=O)C1C(C)=Nc2nc(SCCCC)[nH]c(=O)c2C1c1cccc(F)c1 (stereo not given) | -2 | -5
O=S(=O)(Cc1ccon1)N1CCNCC1 | -4 | -11
NC1(CNC(=O)c2ccc(Br)cc2)CCCC1 | 11 | 3
CCOC(=O)c1nn(-c2ccc(C)cc2)c(=O)c2c(NC(=O)c3cccc([N+](=O)[O-])c3C)scc12 | 7 | 4
CCOC(=O)C1(Cc2ccccc2)CCN(Cc2ccc(C#CC(C)(C)O)cc2)CC1 | 17 | 8
COC(=O)C(Cc1ccccc1)NC(=O)c1c(OC)cccc1OCc1ccccc1 (stereo not given) | -5 | -8
CNC(=O)c1cccnc1N1CCOCC(CN(C)C)C1 (stereo not given) | -2 | -10
CCCCn1c(C(=O)Nc2ccc(C)c(F)c2)cc2c(=O)n(C)c(=O)n(C)c21 | 1 | -1
O=C(NC[C@H]1CCc2ccccc2O1)c1cn(CCN2CCCCC2)nn1 | 4 | 0
O=S1(=O)CC2N=C(NN=Cc3ccccc3)SC2C1 (stereo not given) | 7 | 4

The results go on:
canonical_smiles | NPYLR7 ag | NPYLR7 ag max-min
CCOC(=O)C(Cc1ccc(Cl)cc1)NC(=O)c1cccnc1Oc1cccc([N+](=O)[O-])c1 (stereo not given) | -7 | -12
O=C1C(=Cc2ccccc2)N=C(S)N1C(=O)c1ccccc1 | 12 | 4
C=C(C)Cn1c(=O)c2c(nc3n(CCCOC)c(C)cn23)n(C)c1=O | -3 | -4
NC1=NC(c2cc(Cl)cc(Cl)c2O)n2c(nc3cc4c(cc32)OCCCO4)N1 (stereo not given) | -6 | -7
